Compound activity from PubChem.
Menin MLL FP FL = inhibitors of human menin-MLL interaction, wild-type MLL peptide; Fluorescence polarization, fluorescein-MLL peptide displacement from menin; FP activity change, % at 61.4 µM; AID 1766; 290,000 tested, under 10 active; inconclusive = falling polarisation curve, or a change in total fluorescence; inactive = total fluorescence flat and polarisation flat or rising; no compound was filed as active; the % refers to the polarisation; negative = inhibition;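 note: % of control where 0% means no effect; inhibitors lower the polarisation; unlabelled MLL peptide was the positive control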
Sfp inh = blocks B. subtilis Sfp PPTase activity; actives 3.5% (n = 310,000); Biochemical Sfp PPTase activity, qHTS; Potency, µM, for inactives: max response, negative = inhibition, usual class: inhibitors; Q9F4F7; active = well fitted inhibition curve with a large enough effect; inconclusive = small, poorly fitted or top-dose-only effect, or another doubt; inactive = no such curve, though single readings can be large or run the other way;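 note: the enzyme is Sfp with the accession as filed and its product quenches rhodamine fluorescence; potency is the fitted concentration of half-maximal effect; 0% = enzyme reaction without inhibitor and -100% = no enzyme wells; top concentration of the series not given in the record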
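Reaction rates are the 30-min fluorescence difference (ex 525, em 598 nm) in wells containing 15 nM Sfp, 5 uM rhodamine-CoA and 12.5 uM BHQ-2-YbbR at pH 7.6 with 10 mM MgCl2.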
TRPV1 PAM = enhances activation of the human vanilloid receptor TRPV1. AID 540277. actives 0.02% (n = 320,000). Q8NER1. potentiation, % at 8.33 µM. TRPV1-expressing cells, Fluo-8 calcium influx, capsaicin EC20 potentiation; host cell line not named in the record; control for the full effect not named in the record; active means potentiation above 80%; inconclusive means 30% to 80%; inactive means below 30%; note: 0% is about no effect
Target sequence (Q8NER1 whole entry, looked up): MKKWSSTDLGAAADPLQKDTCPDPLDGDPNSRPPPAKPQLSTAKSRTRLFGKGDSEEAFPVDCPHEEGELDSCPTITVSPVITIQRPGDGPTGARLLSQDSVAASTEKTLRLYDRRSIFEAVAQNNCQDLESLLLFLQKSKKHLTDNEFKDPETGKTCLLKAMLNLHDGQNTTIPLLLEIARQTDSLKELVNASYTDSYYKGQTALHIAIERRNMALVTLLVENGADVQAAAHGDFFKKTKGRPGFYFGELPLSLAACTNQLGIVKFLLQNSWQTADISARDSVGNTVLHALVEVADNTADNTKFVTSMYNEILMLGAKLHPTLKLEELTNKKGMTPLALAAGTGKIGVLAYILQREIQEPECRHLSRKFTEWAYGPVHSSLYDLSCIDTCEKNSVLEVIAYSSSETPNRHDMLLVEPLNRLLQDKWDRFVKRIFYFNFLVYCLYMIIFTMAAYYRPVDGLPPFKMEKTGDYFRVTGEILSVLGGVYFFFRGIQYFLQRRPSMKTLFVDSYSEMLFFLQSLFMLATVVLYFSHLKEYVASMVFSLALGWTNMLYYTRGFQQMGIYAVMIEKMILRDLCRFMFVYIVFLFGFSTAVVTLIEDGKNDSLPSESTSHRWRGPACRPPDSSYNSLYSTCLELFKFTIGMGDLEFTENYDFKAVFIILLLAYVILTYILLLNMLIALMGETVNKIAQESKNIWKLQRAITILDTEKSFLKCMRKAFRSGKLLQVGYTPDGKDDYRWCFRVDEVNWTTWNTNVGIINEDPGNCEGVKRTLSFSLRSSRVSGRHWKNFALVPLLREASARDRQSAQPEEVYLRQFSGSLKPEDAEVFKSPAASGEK
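Fluo-8 calcium influx in TRPV1-expressing cells, kinetic read (ex 480/em 520 nm). Compound added and read 3 min for agonist activity, followed by capsaicin at EC20 final and 2 min further read for enhancement.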
ClpP mod = qHTS Assay for Activators of ClpP; purified B. subtilis ClpP, FRET peptide cleavage, 20 min; Potency, µM (series often up to 57.5 µM), without a hit: at the highest dose activity change, negative = active; actives 1.9% (n = 340,000); AID 651965, 2013; active = well fitted falling curve with a large enough effect; inconclusive = small, poorly fitted or top-dose-only effect; inactive = no such curve, though single readings can be large or run the other way; note: potency is the fitted concentration of half-maximal effect; the source files actives as falling curves though it sought activators and does not explain the sign; nearly all actives have a fitted effect of over 65% in size; many hits overshoot -100%
Target sequence (P80244 whole entry, looked up): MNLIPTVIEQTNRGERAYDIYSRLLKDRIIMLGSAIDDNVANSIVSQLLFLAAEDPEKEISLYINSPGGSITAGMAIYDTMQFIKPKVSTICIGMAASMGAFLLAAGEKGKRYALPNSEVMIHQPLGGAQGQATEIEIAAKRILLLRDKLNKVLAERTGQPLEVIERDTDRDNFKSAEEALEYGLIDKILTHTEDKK
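FRET quenching reversal measured ClpP activation: 10 microg/mL B. subtilis ClpP at pH 8 with the FRET-FV decapeptide, read at 430 nm after 320 nm excitation. The 20-min minus 0-min signal was scaled between DMSO/no-enzyme wells and ADEP (5.8 microM final).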
gsp ag = gsp mutant agonism. gsp mutant cells, cAMP HTRF, 30 min; control for the full effect not named in the record. Potency, µM (titrated, usually from 76.9 µM), for the others: top-dose activation (cAMP increase), actives largely listed as activators. actives 0.13% (n = 340,000). AID 624287; active = well fitted activation curve with a large enough effect; inconclusive = small, poorly fitted or top-dose-only effect, or another doubt; inactive = no such curve, though single readings can be large or run the other way; cell line not stated here;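 note: phosphodiesterase inhibitor Ro 20-1724 added with compounds to block cAMP breakdown; potency is the fitted concentration of half-maximal effect; nearly all actives have a fitted effect of over 60% in size; about a fifth of the inactives were tested at one dose only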
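Cells stably selected in G418 were plated at 2000/well, grown 16-24 hr, then given compounds in DMSO with the PDE inhibitor […] (300 uM solution added) for 30 min at 37C; cAMP was read by HTRF.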
CtBP-E1A inh = blocks the CtBP interaction with E1A. AlphaScreen GST-E1A/His-CtBP binding, 1536-well; hits give low values; control for the full effect not named in the record. activity change, % (no concentration beside the values). actives 0.49% (n = 340,000). AID 651724; in the data active means activity change below about -65%; inconclusive means about -30% to -65%; inactive means above about -30%; note: % is set by controls: 0 for no effect and ±100 for the full control effect; compound concentration not given in the record
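AlphaScreen with 125 nM GST-E1A and 125 nM His-CtBP (5X stocks) in Tris pH 8.0, 300 mM NaCl, BSA, Tween 20, TCEP. Compounds preincubated 2 h at 37 deg C, then glutathione donor/nickel acceptor beads added for 1 h at 37 deg C in dark.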
gsp antag = gsp mutant antagonism. gsp-mutant cells, cAMP HTRF, 30 min; control for the full effect not named in the record. Potency, µM (highest dose often 76.9 µM), for inactives: at the top dose activity change, negative = inhibition, actives largely listed as inhibitors. actives 0.4% (n = 340,000). AID 624288; active = falling curve of any shape with a large fitted effect; inconclusive = falling curve, mostly with a smaller effect; inactive = flat or rising curve; cell line not stated here;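 note: intracellular cAMP measured with PDE inhibitor Ro 20-1724 present during compound exposure; potency is the fitted concentration of half-maximal effect; % is set by controls: 0 for no effect and ±100 for the full control effect; nearly all actives have a fitted effect of over 65% in size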
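Cells, 2000/well, grown 16–24 h in DMEM 10% FBS with 0.5 mg/ml G418, then compounds plus […] (300 uM addition stock), 30 min at 37C. cAMP read by HTRF (cAMP-d2 and anti-cAMP antibody-K in lysis buffer) after 30 min RT.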
An asterisk follows results filed as active; ? = inconclusive; nt = no result given; [ ] = dose if it differs, or a comment.

mol	Menin MLL FP FL	Sfp inh	TRPV1 PAM	ClpP mod	gsp ag	CtBP-E1A inh	gsp antag
COC(=O)c1cc(OC)c(OC)cc1NC(=O)c1csc(C)c1	nt	-12.9%	12.2	3.4%	?	-12.9	-15.1%
COc1ccc(-c2cnnc(N/N=C/c3ccc(C)o3)n2)cc1	-4.6	23.4%	-6.3	nt	4.2%[15.4 µM]	0.0	nt
CN(Cc1ccccc1)C(=O)c1ccc(NC2=NC3CS(=O)(=O)CC3S2)cc1 (stereo not drawn)	-1.2	17.1%	-8.9	-0.5%	0.1%	11.1	7.1%
CCOC(=O)c1ccc(NC(=S)Nc2ccc(Br)cc2N)cc1	nt	nt	nt	-7.5%	nt	-1.0	-2.5%
O=C(CSc1ncccn1)Nc1cccc(S(=O)(=O)N2CCOCC2)c1	nt	nt	nt	0.9%	-2.6%[15.4 µM]	7.2	-6.6%
COc1ccc(C/C(C)=N/NS(=O)(=O)c2ccc(Br)cc2)cc1	-3.3	-17.7%	3.7	1.4%	-16.1%	-1.0	5.0%
CCOCc1nnc(NC(=O)c2cc(OC)c(OC)cc2[N+](=O)[O-])s1	-0.2	9.5%	-4.5	nt	2.5%[15.4 µM]	2.6	2.7%
Cc1ccc(C(=O)N2CCN(c3ccccc3)CC2)cc1C	-1.7	-2.8%	-9.8	0.7%	?	7.3	-1.4%
COCCNC(=O)CN(Cc1ccc(OC)cc1)C(=O)CCC(=O)Nc1nccs1	3.2	16.4%	3.6	-2.1%	-56.5%	0.0	5.7%
COc1ccc(C)cc1NC(=O)NC1CCCc2ccccc21 (stereo not drawn)	3.8	7.2%	8.1	-1.9%	7.4%	1.1	-23.2%
Cc1cc(C)n2nc(C(=O)Nc3cccnc3)nc2n1	0.6	-1.5%	-2.2	1.4%	-6.2%	16.1	4.8%
Cc1ccc2c(c1C)OC(=O)CC2c1ccccc1 (stereo not drawn)	-0.5	-11.1%	-9.0	nt	-11.1%	11.2	-8.1%
CCOc1ccc(S(=O)(=O)N/N=C(\C)c2ccc(Cl)c(Cl)c2Cl)cc1	2.3	-3.1%	-6.2	-5.2%	-44.5%[inhibitor]	-3.7	-9.9%
COc1ccc(-c2oc(=O)c3cc(OC)c(OC)cc3c2C(F)(F)F)cc1	nt	nt	-5.3	0.2%	nt	4.6	?
CC(=O)Nc1ccc(S(=O)(=O)NNC(=O)c2cc3c4ccccc4n(C)c3s2)cc1	5.0	11.8%	27.8	28.2µM*	-0.3%	-0.3	4.6%
CC(C)N1CCN(Cc2cccn2-c2cccnc2)CC1CCO (stereo not drawn)	-3.6	3.4%	5.4	nt	-27.3%[15.4 µM]	4.2	10.6%
CCCCc1nnc(NC(=O)C2=COCCO2)s1	nt	9.2%	-1.9	-1.7%	?	9.7	14.8%
Cc1cnc(NC(=O)CSc2nnc(-c3cccs3)n2C)s1	2.6	2.6%	6.2	-2.0%	0.6%	-13.3	-2.7%
COc1cc(C(=S)N2CCN(c3ccccc3Cl)CC2)cc(O)c1O	1.5	35.5µM*	-11.5	1.0%	-4.0%	9.9	-15.3%
Cn1c(NC(=O)CC2CCCCC2)cc(=O)n(C)c1=O	-8.1	2.9%	-15.2	-0.8%	-3.5%	0.4	-5.3%
N#Cc1c(NCCO)nc(NCc2ccccc2)c2c1CCN(Cc1ccccc1)C2	1.4	-21.2%	-3.7	10µM*	-12.4%	-12.0	1.1%
CC1(C)Cn2c(nc(=O)c3c2NCN(CCc2ccccc2)C3)S1	-1.3	-17.8%	5.0	nt	nt	nt	nt
CCNc1c([N+](=O)[O-])c(=O)n(CC)c2ccccc12	2.7	8.8%	-6.3	nt	6.6%	-18.5	7.8%
N#CC(c1ccccc1)c1cccc(Cl)n1 (stereo not drawn)	1.9	16.9%	13.6	nt	0.8%	-12.4	7.8%
Cc1ccc(-c2cc(C(=O)NCCCn3ccnc3)c3cc(Br)ccc3n2)o1	1.4	-5.5%	-2.1	-19.8%	?	-22.0	-5.3%
Brc1ccccc1CN1CCC(N2CCCCC2)CC1	5.6	8.2%	?	0.6%	-17.7%	-1.4	2.9%
CCN(CC)CCn1c2c(c(SCC(=O)Nc3ccc(F)c(F)c3)nc1=O)CCC2	nt	nt	-1.4	-6.7%	?	-13.9	2.1%
CCOc1ccccc1C1C(C#N)=C(N)Oc2cc(C)n(Cc3ccccn3)c(=O)c21 (stereo not drawn)	?	-12.6%	18.6	-5.6%	6.6%	1.0	-16.6%
CCOC(=O)c1cccc(NC(=O)c2ccc(NC(=O)C3CCCO3)cc2)c1 (stereo not drawn)	3.3	24.1%	2.4	nt	-17.8%	1.0	-5.0%
N#Cc1cccc(NS(=O)(=O)c2ccccc2Cl)c1	nt	nt	14.9	-2.4%	-0.4%	-9.2	1.6%
CC1CC(Nc2ccccc2N)=CC(=O)O1 (stereo not drawn)	1.5	20.9%	7.2	-3.0%	-33.0%[inhibitor]	-2.8	-1.3%
Cc1ccc(NS(=O)(=O)c2ccccc2[N+](=O)[O-])cc1S(=O)(=O)N1CCCCC1	nt	nt	nt	nt	4.3%	-1.0	-21.8%
COC(=O)c1ccc(N2C(=O)CC(Sc3n[nH]c(C)n3)C2=O)cc1 (stereo not drawn)	-0.6	?	18.3	-4.2%	3.9%	0.4	0.8%
NC(=O)CC1C(=O)N(c2ccc(Cl)cc2)C(=S)N1NC(=O)c1cccc(F)c1 (stereo not drawn)	-7.9	19.6%	-15.2	-0.2%	9.4%	-12.4	3.1%
CCc1ccc(C)c(OC(=O)c2cncc(Br)c2)c1	-4.2	7.5%	-10.9	1.3%	-10.5%	nt	7.4%
Cc1ccc(Cn2cc(CCC(=O)O)c3ccccc32)cc1	3.9	13.4%	6.1	1.0%	-19.7%	-65.3*	-7.9%
CC(=O)N1CCN(C(=O)c2cc(-c3ccc(C)o3)nc3ccccc23)CC1	nt	nt	4.5	nt	44.3%[15.4 µM]	1.1	0.5%
CSc1nccc(-c2nn(-c3ccc(C)cc3)ccc2=O)n1	3.0	-0.6%	-13.4	-16.5%	1.5%	?	14.7%
CC(=O)c1ccc(OCCCC(=O)NCCc2ccccc2)cc1	nt	13.3%	-7.3	-4.7%	15.7%	2.1	?
CC[C@]1(C(=O)OC)[C@H]2C(=O)N(Cc3ccccc3)C(=O)[C@H]2[C@H]2CN=C(SCC3CC3)N21	nt	nt	nt	-1.2%	nt	-19.8	-1.7%
Nc1c(Cl)cc(Cl)cc1C(=O)OCC(=O)N1CCOCC1	2.6	4.4%	-2.8	4.3%	12.8%	nt	0.1%
CCOc1c2ccc(C(=O)N[C@H](C)C3CCCCC3)cc2nn1CC	-2.8	17.2%	-26.4	3.6%	-16.1%	-9.8	12.2%
Cc1[nH]nc(-c2ccc(OCc3cnn(-c4ccccc4)c3)cc2O)c1Oc1ccc(F)cc1	-3.2	21.3%	-3.8	-17.0%	8.4%	-10.8	12.2%
CC(C)(C)C(=O)O/N=C1\CCS(=O)(=O)c2sccc21	-1.5	2.1%	6.0	-0.6%	11.4%[15.4 µM]	2.3	-6.9%
CCOC(=O)C1C(c2cc(OC)c(OC)c(OC)c2)NC(=S)NC1(O)C(F)(F)F (stereo not drawn)	-1.3	79.4µM*	14.0	1.5%	0.0%	2.2	-6.7%
CCCCn1c(N)c(N(CCC(C)C)C(=O)c2c(CC)noc2C)c(=O)[nH]c1=O	nt	nt	nt	-2.8%	-32.2%[inhibitor]	1.8	nt
Nc1ccccc1NC1=CC(=O)CC(c2ccco2)C1 (stereo not drawn)	2.8	8.91µM*	-26.2	0.6%	-14.3%	5.5	-5.2%
Cc1cc(C)cc(N(CCC(=O)Nc2nnc(C3CC3)s2)S(=O)(=O)c2ccc(Cl)cc2)c1	3.3	-10.7%	-10.3	48.4%	-22.5%	-1.5	-3.4%
Cc1ccc(OCCC(=O)OCc2csc(CC(=O)Nc3ccccc3C)n2)cc1	nt	9.5%	7.7	1.7%	8.2%[15.4 µM]	4.2	-4.4%
Cc1cc([N+](=O)[O-])ccc1NC(=S)NC1CCCC1	nt	20.3%	1.9	1.8%	-3.4%	1.8	-26.8%
COc1ccc(/C=N/NC(=O)c2ccccc2Cl)cc1CSc1nc2ccccc2s1	-0.8	12.5%	-7.7	-29.8%	-3.5%	-7.7	6.4%
CCc1c(C)nc2ncnn2c1N1CCCC(C(=O)NCc2ccco2)C1 (stereo not drawn)	0.2	6.2%	23.5	-1.5%	-57.8%[inhibitor]	-1.9	2.8%
CCn1cc(C(=O)NCC(OC)OC)c(=O)c2cc(S(=O)(=O)N(C)C3CCCCC3)ccc21	-3.3	-1.7%	-10.2	-5.0%	16.4%	-1.7	-32.6%
Cn1c(SCc2ccccc2)nccc1=O	nt	nt	nt	1.3%	-2.2%[15.4 µM]	11.9	5.0%
Cc1cccc(/C=N/NC(=O)CC(=O)NCCc2ccccc2)c1	nt	nt	nt	nt	-6.5%	-1.4	-9.2%
O=C1c2cccnc2C(=O)N1c1ccccc1-c1ccccc1	1.0	-7.0%	nt	1.3%	-2.7%	-19.7	6.8%

(continued)
mol	Menin MLL FP FL	Sfp inh	TRPV1 PAM	ClpP mod	gsp ag	CtBP-E1A inh	gsp antag
COc1ccc(OCC(=O)N/N=C2/C=C(C)CC2)cc1	-2.4	-2.3%	-12.5	nt	21.4%[15.4 µM]	-0.5	1.3%
NCCCCCNC(=O)c1[nH]cnc1C(=O)N[C@@H](Cc1ccccc1)C(=O)OCc1ccccc1	nt	nt	nt	-1.0%	nt	-5.3	11.4%
CS(=O)(=O)N(CC(=O)NCc1cccnc1)C1CCCCC1	-1.3	9.9%	0.3	nt	19.0%[15.4 µM]	-21.7	-18.4%
CCOc1ccc(-c2cccc(NS(=O)(=O)c3ccc([N+](=O)[O-])cc3)c2)nn1	nt	nt	5.7	0.9%	?	0.0	?
